Screening data from PubChem BioAssay.
Rango complex inh: qHTS Assay for Inhibitors of Rango (Ran-regulated importin-beta cargo) - Importin beta complex formation | Rango CFP/YFP FRET sensor + importin beta, 45 min | AID 540263, 2011 | 340,000 tested, 0.031% active | Importin subunit beta-1 (Homo sapiens), Q14974 | Potency, µM (highest dose often 92.2 µM), inactives show top-dose inhibition of complex formation; active = rising FRET ratio curve, often small or poorly fitted; inconclusive = mostly compound fluorescence or quenching in the first reads; inactive = flat curves in all reads;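 also: potency is read from the fitted curve at half-maximal effect; 0% = DMSO wells and 100% = buffer wells lacking importin beta; nearly all actives have a fitted effect of over 15% in size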
Target sequence (Q14974 whole entry, looked up): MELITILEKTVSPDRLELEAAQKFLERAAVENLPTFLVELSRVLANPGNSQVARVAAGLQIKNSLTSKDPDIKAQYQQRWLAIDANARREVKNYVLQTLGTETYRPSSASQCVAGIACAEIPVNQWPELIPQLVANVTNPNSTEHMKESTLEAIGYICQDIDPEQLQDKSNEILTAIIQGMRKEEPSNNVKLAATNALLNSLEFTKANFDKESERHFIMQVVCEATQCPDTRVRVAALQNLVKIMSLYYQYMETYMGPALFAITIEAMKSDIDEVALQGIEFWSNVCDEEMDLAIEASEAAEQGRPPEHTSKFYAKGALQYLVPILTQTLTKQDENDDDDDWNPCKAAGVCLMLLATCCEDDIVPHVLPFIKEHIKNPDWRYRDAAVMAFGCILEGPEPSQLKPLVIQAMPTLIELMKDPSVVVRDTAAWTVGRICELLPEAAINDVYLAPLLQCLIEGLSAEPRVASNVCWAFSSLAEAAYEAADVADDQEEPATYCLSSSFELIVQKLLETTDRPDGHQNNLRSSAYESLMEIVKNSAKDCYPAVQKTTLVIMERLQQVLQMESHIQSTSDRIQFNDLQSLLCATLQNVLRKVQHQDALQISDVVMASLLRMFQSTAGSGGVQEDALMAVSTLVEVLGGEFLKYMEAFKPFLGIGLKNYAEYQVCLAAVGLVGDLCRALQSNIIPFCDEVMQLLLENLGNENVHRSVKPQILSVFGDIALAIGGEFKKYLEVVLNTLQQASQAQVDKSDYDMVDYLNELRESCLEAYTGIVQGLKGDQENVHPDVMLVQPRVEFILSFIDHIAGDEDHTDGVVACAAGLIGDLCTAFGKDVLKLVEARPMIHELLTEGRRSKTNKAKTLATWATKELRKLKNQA
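FRET biosensor (snurportin 1 IBB flanked by EYFP and cerulean), 50 nM, with compound 5 min, then 0.125 microM importin beta in PBS, 1 mM DTT, 0.02% Tween-20, 0.1% BSA. CFP/YFP ratio read after 45 min at room temperature; pre-read flags interference.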
Rango release inh: qHTS Assay for Inhibitors of RanGTP induced Rango (Ran-regulated importin-beta cargo) - Importin beta complex dissociation; Snurportin-1 (Homo sapiens) + GTP-binding nuclear protein Ran (Homo sapiens) + Importin …; Potency, µM (titrated, usually from 46.1 µM), inactives show at the top dose activity change, negative = inhibition; Biochemical FRET Rango-importin beta, RanGTP-induced dissociation; AID 540253, 2011; 340,000 tested, 0.071% active; active means falling FRET ratio curve, often poorly fitted, with flat reads before Ran was added; inconclusive means other falling curves, or compound fluorescence or quenching; inactive means flat or rising ratio curve;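 also: potency is read from the fitted curve at half-maximal effect; % of control where 0% means no effect; nearly all actives have a fitted effect of over 45% in size; -100% = wells without RanGTP and RCC1; the record marks most hits as doubtful in a second field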
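Rango FRET biosensor (snurportin-1 IBB flanked by N-terminal EYFP and C-terminal CFP10) at 0.1 uM, with 0.25 uM importin beta in PBS, 1mM DTT, 0.02% Tween-20, 0.1% BSA. 0.6 uM Ran, 2mM GTP and 0.2 uM RCC1 were then added for 45 min at room temperature. Inhibition read as loss of FRET rise.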
GLA inh pH 4.5: qHTS Assay for Inhibitors of Human alpha-Galactosidase at pH 4.5. activity change, negative = inhibition, % at 105 µM. Alpha-galactosidase A (Homo sapiens), P06280. 230,000 tested, under 10 active. purified enzyme, 4-MU-alpha-Gal fluorescence, pH 4.5; inconclusive = small, poorly fitted or top-dose-only inhibition, or a rising curve; inactive = flat fitted curve, though single readings scatter; no compound was filed as active;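 also: 0% = full activity with enzyme and -100% = basal without enzyme; dose as in the result columns while the protocol names 77 µM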
miR-21 reporter: qHTS Assay for Modulators of miRNAs and/orActivators of miR-21; HeLa miR-21 FLuc reporter, luciferase, 48 h; AID 2288, 2010; 340,000 tested, under 10 active; Potency, µM (series often up to 38.3 µM), for inactives: top-dose reporter change, positive = more light; active = well fitted rising curve with a large enough effect; inconclusive = small, poorly fitted or top-dose-only effect; inactive = no such curve, though single readings can be large or run the other way;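 also: % of control where 0% means no effect; miR-21 action dims this reporter so a rising signal means less miR-21 action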
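Using DMEM plus 10% FBS, HeLa miR-21-FLuc cells are incubated with test compounds (final up to about 40uM) for 48 hours; firefly luciferase signal is then imaged following reagent-mediated lysis.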
* hit, by the source's call; ? = inconclusive; · = not tested or not shown.

No.	SMILES	Rango complex inh	Rango release inh	GLA inh pH 4.5	miR-21 reporter
1	Cc1ccc(S(=O)(=O)N(C)C)cc1NC(=O)COC(=O)COc1ccc2c(C)cc(=O)oc2c1	-0.3%	7%	·	·
2	Cc1nc2sc(C(c3ccccc3)N3CCOCC3)c(O)n2n1 (stereo unspecified)	4.0%	1%	-2	-3%
3	O=C1/C(=C\c2ccco2)SC(=S)N1Cc1ccccc1	2.8%	-6%	8	-5%
4	O=C(NC(=S)N1CCN(CCO)CC1)C12CC3CC(CC(C3)C1)C2	-0.1%	-2%	-1	-1%
5	O=c1c(-c2cccc(Cl)c2)c[nH]n1-c1ccccc1	-0.3%	5%	·	-36%
6	O=C(Nc1cccc(C(=O)N2CCCCC2)c1)c1ccccc1	-2.3%	-11%	·	·
7	C[C@H](NC(=O)c1nc[nH]c1C(=O)N[C@@H](C)C(=O)OC(C)(C)C)C(=O)OCc1ccccc1	-0.1%	-17%	·	3%
8	Cc1c(C)n2c(SCC(=O)N3CCCCC3)nnc2[nH]c1=O	3.2%	-10%	·	·
9	Cc1csc(SCC(=O)NCc2ccccc2Cl)n1	-0.2%	0%	0	-12%
10	CC(C)NC(=S)N/N=C/c1ccc2c(c1)OCCO2	-0.8%	6%	-2	-54%
11	COc1cc(NC(=O)c2cccnc2)c(Cl)cc1NC(=O)c1ccc(Cl)cc1	-0.6%	2%	·	-2%
12	CCN1CCN(C(=S)c2ccc(OCC(=O)NCc3ccccc3)cc2)CC1	-2.7%	-11%	?	-4%
13	CC1(C)CC2(CC(c3ccccc3F)c3cc(Cl)c(O)cc3O2)NC(=S)N1 (stereo unspecified)	4.9%	7%	-10	?
14	COc1ccccc1CNC(=O)C/C(C)=N/NC(=O)Cc1ccccc1	3.5%	1%	-10	-6%
15	COc1ccc(OC)c(-n2nnnc2SCC(=O)Nc2ccc(C(=O)N3CCCCC3)cc2)c1	-2.0%	9%	2	12%
16	CCOc1ccc(CCNC(=O)COC(=O)c2cc(=O)[nH]c3ccccc23)cc1OCC	3.8%	10%	·	·
17	CC1CC(C)CN(C(=O)c2ccc(-c3ccc([N+](=O)[O-])cc3)o2)C1 (stereo unspecified)	?	-19%	·	·
18	Cc1cc[n+](CC(=O)c2cccs2)cc1	-0.6%	-1%	0	-8%
19	COc1ccc(COC(=O)c2ccc(S(=O)(=O)N3CCC(C)CC3)cc2)cc1	-0.6%	0%	·	2%
20	CSC1=NCCN1C(=O)C(C)Oc1ccccc1 (stereo unspecified)	?	-30%	-2	0%
21	Cc1ccc(C(=O)CSc2ncn[nH]2)cc1	1.9%	6%	-9	-29%
22	COc1ccc(-c2cn(Cc3ccc(C(N)=O)cc3)c(CCN)n2)cc1	-3.9%	1%	·	·
23	O=C(COC(=O)CNC(=O)c1ccco1)Nc1ccccc1OC(F)F	3.6%	3%	2	-4%
24	Nc1nc(SCC(=O)NCCO)nc2sc3c(c12)CCCC3	?	20%	-4	-20%
25	Cc1ccc(NS(=O)(=O)c2ccc(Br)s2)cc1S(=O)(=O)N1CCOCC1	-1.0%	-4%	5	0%
26	Cc1cc(C)n2cc(CSc3nnc(-c4ccccc4)c(-c4ccccc4)n3)nc2n1	-0.7%	-16%	·	·
27	O=C1CSC(c2cn(-c3ccccc3)nc2-c2cccs2)N1CC1CCCO1 (stereo unspecified)	1.1%	-4%	-14	6%
28	CCOc1cc(/C=C2\SC(=N)N(c3nonc3N)C2=O)ccc1OCC(N)=O	?	?	-1	-8%
29	Cc1nc(N)sc1-c1nnc(SCC(=O)Nc2nccs2)n1C	0.5%	-2%	2	0%
30	CCC(C)n1nnc2c(=O)oc3ccccc3c21 (stereo unspecified)	?	5%	-1	0%
31	Cc1ccc2oc(-c3ccc(NC(=O)c4ccc5c(c4)OCO5)cc3)nc2c1	0.0%	1%	16	-43%
32	CN(C(=O)c1ccc(NC(=O)Cc2cccc(NC(=O)C3CCN(C(=O)C4CCCCC4)CC3)c2)cc1)C1CCCC1	-4.7%	1%	·	·

Single records, from the list above:
Record of Cc1ccc(NS(=O)(=O)c2ccc(Br)s2)cc1S(=O)(=O)N1CCOCC1 → Rango complex inh: -1.0%; Rango release inh: -4%; GLA inh pH 4.5: 5; miR-21 reporter: 0%
Record of COc1ccc(COC(=O)c2ccc(S(=O)(=O)N3CCC(C)CC3)cc2)cc1 → Rango complex inh: -0.6%; Rango release inh: 0%; GLA inh pH 4.5: ·; miR-21 reporter: 2%

The list goes on:
No.	SMILES	Rango complex inh	Rango release inh	GLA inh pH 4.5	miR-21 reporter
33	COc1ccc(C(=O)c2c(C)oc3ccc(O)cc23)cc1	1.3%	8%	·	-7%
34	O=C(/C=C/c1ccc(S(=O)(=O)N2CCOCC2)cc1)OCC(=O)c1ccc([N+](=O)[O-])cc1	-6.0%	8%	2	-3%
35	C/C(=N/NS(=O)(=O)c1ccc(Cl)cc1)c1ccc2c(c1)OCO2	0.9%	-2%	·	·
36	Cc1ccc(Nc2nnc(SC3CCOC3=O)s2)cc1 (stereo unspecified)	0.0%	16%	2	-8%
37	O=C(CCN1C(=O)/C(=C\c2cccs2)SC1=S)NC1=NCCS1	1.8%	-5%	-1	1%
38	CCOc1ccc(N(CC(=O)NC2CCCC(C)C2C)S(=O)(=O)c2c(C)noc2C)cc1 (stereo unspecified)	1.0%	18%	1	-7%
39	CC(C)CN1CCC(=O)N([C@H](COc2ccccc2)Cc2ccccc2)CC1	-3.5%	16%	·	9%
40	COc1ccc(S(=O)(=O)Nc2nnc(C(C)C)s2)cc1	-0.5%	-3%	3	-3%
41	Cc1ccccc1C(=O)NNC(=O)CCCCC(=O)NNC(=O)c1ccccc1C	-2.3%	-8%	·	·
42	CCOC(=O)COc1ccc2cc(C(=O)OCC)c(=O)oc2c1	-9.2%	1%	?	-5%
43	COC(CNC(=O)C1CC(=O)N(CCc2ccccc2)C1)OC (stereo unspecified)	1.7%	7%	-2	0%
44	CCOC(=O)C1CCN(C(=O)c2ccc(OC3CCN(C(=O)CCOC)CC3)cc2)CC1	-1.5%	0%	·	-4%
45	O=C(NCN1CCN(c2ccccn2)CC1)c1cnccn1	0.4%	-3%	1	-4%
46	Cc1cc(=O)oc2cc(OCCCC[n+]3ccccc3)ccc12	8.7%	-8%	-4	-2%
47	CC1(C)CC(=O)c2sc(NC(=O)c3ccc4ncsc4c3)nc2C1	?	-16%	-9	-24%
48	CCOC(=O)NNC(=O)CCn1c2c(c3ccccc31)CCCC2	?	-19%	3	18%
49	CCN(CC)S(=O)(=O)c1ccc(OCC(=O)NCc2ccccc2)cc1	-8.9%	1%	-3	-6%
50	CCOC(=O)c1ccc(OC)c(OC)c1Cl	-0.7%	-3%	6	-2%
51	COc1ccc(N(CC(=O)NCCc2ccccc2)C(=O)c2csnn2)cc1	0.5%	-13%	·	-7%
52	Cc1ccc2nc(-c3ccccn3)[nH]c2c1	2.7%	2%	·	15%
53	COc1ccc(C)cc1NC(=O)C1CCN(S(=O)(=O)c2ccc3c(c2)NC(=O)CO3)CC1	0.6%	-6%	·	18%
54	COc1cc(/C=C2/CC(C)OC2=O)c([N+](=O)[O-])cc1OC (stereo unspecified)	-0.2%	19%	·	-2%
55	O=C(CN1C(=O)C2C3C=CC(C3)C2C1=O)Nc1ccc2c(c1)OCCO2 (stereo unspecified)	4.2%	6%	-4	-37%
56	CCOC(=O)CNC(=O)CN1C(=O)CCS(=O)(=O)c2ccccc21	-3.3%	20%	1	-5%
57	CCCNC(=O)C/C(C)=N/NC(=O)COc1ccc(C)cc1Br	0.2%	1%	3	-11%
58	O=C(Nc1cc(S(=O)(=O)N2CCCC2)ccc1Cl)C1=COCCO1	3.8%	-8%	-9	-5%
59	Cc1ccc(NC(NC(=O)Cc2ccccc2)C(Cl)(Cl)Cl)cc1 (stereo unspecified)	-2.1%	12%	10	1%
60	COc1cccc2c(=O)n(CC(=O)N3CCc4ccccc43)ccc12	0.7%	1%	8	-2%
61	Cc1ccc(C2SCC(=O)N2Cc2ccccc2)cc1 (stereo unspecified)	0.6%	-10%	·	-11%
62	CC(C)(C)C(=O)CC1(O)C(=O)N(Cc2ccccc2)c2ccccc21 (stereo unspecified)	0.8%	0%	-5	-7%
63	CC(c1ccon1)N(C)Cc1cn(C)nc1-c1cccc(Cl)c1 (stereo unspecified)	0.3%	37%	-2	1%
64	CCOc1ccccc1OCCC(=O)N1CCN(S(=O)(=O)c2ccccc2[N+](=O)[O-])CC1	-3.9%	-5%	·	·
65	CCc1ccc(-c2nc(CS(=O)CC(=O)NCc3ccco3)c(C)o2)cc1 (stereo unspecified)	-0.1%	0%	·	-6%
66	Cc1ccc(C2(c3noc(CN(C)CC4COCCO4)n3)CCCC2)cc1 (stereo unspecified)	-1.1%	0%	3	-7%
67	CCc1ccccc1NC(=O)CNCC(=O)Nc1ccccc1CC	0.4%	-5%	·	0%
68	CCCNC(=S)N1CCC(Cc2ccccc2)CC1	-1.6%	13%	·	9%
69	COc1ccc(C(CC(=O)Nc2ccc(C)cn2)N2Cc3ccccc3C2=O)cc1 (stereo unspecified)	5.4%	4%	·	1%
70	Cc1ccc(NC(=O)c2ccc(S(=O)(=O)N3CCCCC3)cc2)nc1	-2.7%	6%	·	·
71	CC(=O)c1cccc(NC(=O)c2ccc(N(Cc3ccccc3)S(C)(=O)=O)cc2)c1	?	0%	-2	9%
72	COc1cccc(N(C(=O)CNC(=O)c2ccco2)C(C(=O)NC2CCCC2)c2ccncc2)c1 (stereo unspecified)	-0.2%	-14%	3	-6%
73	Cc1cccc(N(C)C(=O)c2cc3cc4ccc(C)cc4nc3o2)c1	1.9%	-7%	-3	-31%
74	Cc1ccc(-c2noc(CN(C(=O)C34CC5CC(CC(C5)C3)C4)C(C)C)n2)cc1	-0.5%	-3%	3	-4%
75	Cc1nc2c3ccccc3n(CCN3CCCCC3)c2s1	·	·	1	-10%
76	CCc1nnc(SCC(=O)Nc2ccccc2)nc1CC	-0.3%	-7%	0	-3%
77	O=C(Nc1nnc(SCC(=O)N2CCCCC2)s1)c1cccs1	-0.5%	17%	-4	-16%
78	C[C@@H]1C(c2ccc(F)cc2)=NN(c2ccc(Br)cc2)[C@H]1C(=O)N1CCOC1=O	-2.8%	-4%	1	·
79	COc1ccc(C(OCC2CO2)c2ccc(OC)cc2)cc1 (stereo unspecified)	·	·	6	1%
80	COc1cccc(/C=C/C(=O)N2CCN(c3ccccn3)CC2)c1	1.5%	2%	·	-13%
81	CCC(C(=O)c1ccc2ncccc2c1)c1ccccc1 (stereo unspecified)	0.0%	15%	-4	-8%
82	COC(=O)c1nnn(CC(=O)Nc2cccc(Cl)c2C)c1C(=O)OC	3.7%	3%	-5	3%
83	CCC(=O)c1ccc2c(c1)N(CCCN(C)C)c1ccccc1S2	-0.6%	-18%	-5	·
84	Cc1cc(NS(=O)(=O)c2ccccc2)ccc1NS(=O)(=O)c1ccccc1	-2.3%	-14%	·	·
85	CN(C)c1ccc(NC2=C(Cl)C(=O)c3ccccc3C2=O)cc1	-0.1%	-9%	-2	45%
86	CC(=O)N1c2ccc(S(=O)(=O)NCCC(=O)NCCc3ccc(Cl)cc3)cc2CC1C (stereo unspecified)	-0.9%	5%	·	19%
87	Cc1ccc(OCC(=O)N/N=C/c2cccnc2)cc1C	1.5%	4%	·	-3%
88	S=C(Nc1cccc(Br)c1)N1CCn2cccc2C1c1cccnc1 (stereo unspecified)	0.3%	-9%	1	9%
89	Cn1c(=O)c2c(nc(NCCCO)n2Cc2cccc(C(F)(F)F)c2)n(C)c1=O	-1.7%	-1%	-1	6%

Not all compounds are listed; rates above refer to the full screens.
